MT1-MMP act inh – MT1-MMP (human) activation inhibition | P50281 | HT1080 RFP-PRO-GFP cells, GFP/RFP ratio fluorescence, overnight; percent of plate control window, DMSO zero | GFP/RFP ratio change, % at 20 µM | 360,000 tested, 0.061% active;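 active = GFP/RFP ratio change of at least 30% with cell ATP level not reduced by more than half and red fluorescence within 50% of control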; note: strong numbers were not always called active
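Read-out: GFP/RFP fluorescence ratio; Test system: RFP-PRO-GFP reporter HT1080 cells; Compound dosing: single-point 20 µM compound, 1% DMSO; Times: overnight compound exposure at 37 °C.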
CSC inhib – blocks cancer stem cells | AID 2717 | 300,000 tested, 1.1% active | cancer stem cell-like cells viability, luminescence | inhibition, % at 7.5 µM;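 active = mean at 75% or more and at least half the replicates too; inconclusive = mean and replicates disagree; tested in HMLE shEcad cells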;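 note: 0% = median of negative and 100% = median of positive control wells; the first replicate is given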
Env fusion inh – inhibitors of HIV Env-mediated cell fusion; 360,000 tested, 1.1% active; inhibition, % at 12.3 µM; HeLa-JRFL Env/CEM21 cell fusion, luciferase;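 active = mean replicate inhibition score of at least 50 and every replicate individually at or above 50; inconclusive = only one of the two criteria met; inactive = mean below 50 and not all replicates reaching 50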;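 note: 0% = plate neutral controls and 100% = maraviroc near 300 nM; one replicate is shown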
UUG fidelity – yeast start codon fidelity modulation | S. cerevisiae UUG-firefly luciferase reporter, luminescence/redox ratio | activity score, % at 18.7 µM | 350,000 tested, 0.13% active | AID 602363;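 active = replicate mean at a twofold rise or more, about +100% in these data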;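 note: firefly luciferase made from a UUG start codon reports start codon fidelity; reporter light over untreated wells divided by growth signal over untreated wells; some hits fall short of that in this replicate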
eIF4H inh – inhibitors of RNA binding by human eIF4H. 290,000 tested, 0.94% active. eIF4H fluorescence polarization binding assay. Q15056. AID 2012. inhibition, % at 35 µM;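 active = 50% or more with normal probe brightness, or confirmed in later tests; inconclusive = above 50% with abnormal brightness, or retests that disagree; inactive = below 50% or failed in later tests; about a fifth of its hits are not listed in these tables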;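 note: calls also rest on retests at 20 µM and on dose response follow-up; 0% = protein and probe with vehicle and 100% = probe without protein; strong numbers were not always called active; many hits fall short of the cut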
PABP FP inh – PABP-poly(A) binding inhibition; AID 2014; inhibition, % at 35 µM; 290,000 tested, 1% active; PABP-poly(A) RNA binding, fluorescence polarization; P11940;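 active = 50% or more with normal probe brightness, or confirmed in later tests; inconclusive = above 50% with abnormal brightness, or retests that disagree; inactive = below 50% or failed in later tests; about a fifth of its hits are not listed in these tables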;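 note: calls also rest on retests at 20 µM and on dose response follow-up; controls were probe without protein and protein plus probe with vehicle; some compounds called inactive have numbers as strong as hits; many hits fall short of the cut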
Target sequence (P11940 whole entry, looked up): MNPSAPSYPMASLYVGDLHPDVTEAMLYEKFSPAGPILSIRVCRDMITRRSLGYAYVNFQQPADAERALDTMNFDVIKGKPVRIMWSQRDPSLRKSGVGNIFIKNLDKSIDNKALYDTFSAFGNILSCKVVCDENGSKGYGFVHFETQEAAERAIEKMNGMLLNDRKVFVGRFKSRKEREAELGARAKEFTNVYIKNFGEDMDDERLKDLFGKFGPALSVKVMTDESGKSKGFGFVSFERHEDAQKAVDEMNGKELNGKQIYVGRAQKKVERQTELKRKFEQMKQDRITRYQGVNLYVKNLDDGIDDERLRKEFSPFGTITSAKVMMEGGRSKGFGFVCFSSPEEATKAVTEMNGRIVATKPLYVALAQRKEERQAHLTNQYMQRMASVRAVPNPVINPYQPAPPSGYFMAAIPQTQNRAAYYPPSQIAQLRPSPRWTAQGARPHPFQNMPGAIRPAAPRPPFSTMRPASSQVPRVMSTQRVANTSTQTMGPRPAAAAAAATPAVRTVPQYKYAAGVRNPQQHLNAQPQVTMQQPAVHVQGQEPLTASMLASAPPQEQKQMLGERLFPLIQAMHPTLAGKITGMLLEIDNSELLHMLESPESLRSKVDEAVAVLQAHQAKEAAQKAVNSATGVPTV
Rce1 inhib – yeast Ras-converting enzyme inhibition. calls only. AID 2563. 290,000 tested, 0.27% active. yeast membranes, quenched prenylated peptide cleavage fluorescence;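 active = fall in fluorescence gain of 50% or more versus controls, with final raw signal at or below 3038400; inconclusive = same 50% fall but final raw signal above 3038400; inactive = fall in fluorescence gain under 50%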;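 note: plate controls were neutral control wells for no effect and wells lacking membranes for full effect; tested at 10 µM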
Target sequence (Q03530 whole entry, looked up): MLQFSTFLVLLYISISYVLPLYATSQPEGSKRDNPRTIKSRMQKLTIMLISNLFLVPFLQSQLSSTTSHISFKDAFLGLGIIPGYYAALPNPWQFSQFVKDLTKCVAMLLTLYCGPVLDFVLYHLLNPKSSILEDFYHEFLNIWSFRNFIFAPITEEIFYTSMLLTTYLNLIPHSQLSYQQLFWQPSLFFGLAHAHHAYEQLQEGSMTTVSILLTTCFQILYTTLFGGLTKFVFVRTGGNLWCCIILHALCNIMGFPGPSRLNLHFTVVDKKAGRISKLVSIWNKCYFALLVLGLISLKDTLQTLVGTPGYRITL
eIF4H inh retest – further read-out of eIF4H inh, marked with its call; inhibition, %; compound at 20 µM; confirmation average;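 mean of two retest wells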
PABP FP inh retest – recorded beside PABP FP inh, whose call it bears; inhibition, %; compound at 20 µM; confirmation repeats;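 mean of two retest wells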
MT1-MMP act inh RFP – further read-out of MT1-MMP act inh, marked with its call; RFP signal change, %; measured here: RFP expression control read;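 0 = vehicle wells; hits needed this value within 50% of zero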
Starred values were filed as active, the others as inactive; i = inactive; ? = inconclusive; . = not tested or not shown; & = joins results of further samples. These rows are one share of the data; count on the stated rates, not on these rows.

SMILES	MT1-MMP act inh	MT1-MMP act inh RFP	CSC inhib	Env fusion inh	UUG fidelity	eIF4H inh	PABP FP inh	Rce1 inhib	others
CCc1oc(C(=O)OC)cc1CSC(=N)N	-3	0	-4	-21	-14	-11	5	i
O=C(CN1C(=O)S/C(=C\c2ccc(F)cc2)C1=O)Nc1cccc(S(=O)(=O)NCc2ccco2)c1	-9	-10	22	5	.	2	-8	i
CCc1nnc(NS(=O)(=O)c2ccc(NC(=O)/C=C/C(=O)O)cc2)s1	1	0	-17	0	-4	7	9	i
CC(C)C(=O)Nc1ccc(C(=O)NCc2cccnc2)cc1	2	6	44	.	-10	0	2	i
CC(=O)Nc1cccc(C(=O)N2CCC(n3nccc3NC(=O)CC(C)C)CC2)c1	0	0	-12	-19	-17	3	2	i
Cc1ccc(C)c(NC(=O)CN(C)C(=O)c2cc3ccccc3oc2=O)c1	3	4	2	-22	-8	.	.	.
COc1ccc(C(=O)c2sc(Nc3ccccc3)nc2C)cc1	-3	-4	.	-8	6	18	-9	i
Cc1ccc(Oc2nc3c(c(=O)n(Cc4ccccc4F)c(=O)n3C)n2C)cc1	5	-9	-3	56*	-7	10	-5	i
O=C(CSc1nc(-c2cccs2)cc(C(F)(F)F)n1)NCCCN1CCOCC1	2	2	-9	-9	.	1	-4	i
Cc1cccc(C)c1NC(=O)CSc1nc2c([nH]1)c(=O)n(C)c(=O)n2C	0	-1	-10	-6	-12	-4	1	i
COc1ccc(-c2nc3cnccn3c2NC2CCCCC2)cc1-c1cccc(Cl)c1	-22&-17	-8&1	105*	-7	-18	.	.	.
Cc1ccc(-n2c(C)nn(CCOc3ccccc3)c2=O)cc1	2	4	-11	-11	-60	0	15	i
N#Cc1c(NC(=O)c2cc([N+](=O)[O-])ccc2N2CCOCC2)sc2c1CCCC2	-1	2	-2	-10	.	8	2	i
Cc1onc(-c2ccccc2Cl)c1C(=O)N(C)CC(=O)Nc1ccc(F)c(F)c1F	2	4	-8	.	-8	.	.	i
Cc1ccc(-c2nc(C)sc2CC(=O)OCC(=O)Nc2cccc([N+](=O)[O-])c2)cc1	0	3	1	.	.	-8	-4	i
O=C(Nc1ccc(F)cc1)c1ccc(CSc2ccccc2)o1	-2	2	34	19	.	2	2	i
COC(=O)c1ccc(NC(=O)CN2CCC(NC(=O)c3ccco3)CC2)cc1	-4	2	-6	-12	.	-3	-9	i
CC(C)C(=O)NCCc1nc2ccccc2n1C	1	2	-1	-9	-14	7	4	i
CC(C)(C)OC(=O)C[C@@H]1C/C=C\C[C@H](CC(=O)N(CCO)Cc2ccccc2)C(=O)N[C@H](C(C)(C)C)COC1=O	-2	1	0	-9	5	.	.	.
CC(C)(C)c1cc2cccnc2n1Cc1cccc(F)c1	4	10	-8	.	-15	?	?	i
Cc1ccc(S(=O)(=O)Nc2nc(C)c(C(=O)N/N=C/c3ccccc3)s2)cc1	1	1	-4	-29	-12	0	-13	.
COc1ccc(OC)c(S(=O)(=O)N2CCC(C(=O)NC3CCCCCC3)CC2)c1	-1	-1	2	5	6	1	2	i
Cn1c(-c2ccc(C=O)s2)nc2c3ccccc3c3ccccc3c21	-7	1	69	.	.	130	125	i	eIF4H inh retest=-4;PABP FP inh retest=3
Cc1nc(-c2ccc(F)cc2)c(CC(=O)N(C)CC(=O)Nc2ccc(Br)cc2C)s1	3	-11	-8	5	28	.	.	i
COc1ccc(C(CNC(=O)c2ccc(NS(=O)(=O)c3ccccc3)cc2)N2CCOCC2)cc1 (stereo not drawn)	2	-2	.	1	-18	.	.	.
CCOC(=O)N1CCN(C(=O)CCS(=O)(=O)c2ccc3c(c2)CC(C)N3C(=O)CC)CC1 (stereo not drawn)	5	2	-10	1	-14	8	2	i
COc1cccc2cc(C(N)=O)/c(=N\NC(=O)c3ccccc3)oc12	-8	-9	0	2	-51	-8	14	i
O=C(Nc1nc2ccccc2n1CCN1CCOCC1)c1ccc(Cl)cc1	8	-6	7	-4	.	4	0	i
C=CCNC(=O)CSc1nnc(-c2ccncc2)n1CCc1ccccc1	3	4	2	-12	-19	11	4	i
O=c1c(-c2c(O)cc(O)c3c(=O)cc(-c4ccc(O)cc4)oc23)c(-c2ccc(O)cc2)oc2cc(O)cc(O)c12	0	-2	19	.	12	95*	65*	.
CS(=O)(=O)N1CCC(C(=O)NCc2ccc(F)cc2)CC1	2	1	-7	9	.	7	-2	i
O=C(CSc1n[nH]c(-c2ccncc2)n1)NCCc1ccccc1	4	4	-20	.	-20	4	-8	i
C=CCNC(=O)c1ccccc1Cl	-2	1	-3	-59	-22	3	4	i
CNS(=O)(=O)c1ccc(NC(=O)c2cncc(Br)c2)cc1	-5	0	-3	28	-18	-3	-5	i
CCc1noc(C)c1C(=O)Nc1nc(-c2cc(OC)ccc2OC)cs1	-1	-15	-12	-109	-7	.	.	i
CN1CCN(c2nnc(-c3ccccc3)c(-c3ccccc3)n2)CC1	-2	-3	-9	-28	-25	9	-12	i
CN=c1scc(-c2c[nH]c3ccccc23)n1C	-5	0	.	35	.	-4	-6	.
COc1ccc(S(=O)(=O)N(C)CC(=O)N2CCCC2)cc1	0	-1	-6	-1	-14	-4	2	i
CC(C)CCN1CCC(Cc2ccccc2)(NC(=O)c2ccccc2)C1=O (stereo not drawn)	-1	-3	3	1	-7	.	.	.
CC(C)(O)C#Cc1ccc(C(=O)N2CCC(CCC(=O)NC3CC3)CC2)cc1	3	2	-10	-7	-3	-5	-6	i
C[C@@H](C(=O)N1CCN(C(=O)OC(C)(C)C)CC1)n1cc(CCC(=O)O)nn1	7	8	-24	22	-23	-6	8	i
CCN1/C(=C/C(C)=O)Sc2ccc(OC)cc21	4	-1	-4	-298	-12	8	4	i
CC(Nc1c([N+](=O)[O-])c(=O)oc2ccccc12)c1ccccc1 (stereo not drawn)	-2	2	7	-15	-8	8	2	i
Cc1ccc(C)c(OCCOCCN2CCOCC2)c1	5	3	6	-1	-9	-4	-10	i
COCCNC(=O)c1ccccc1NC(=O)Cc1ccccc1	2	4	-15	21	.	2	8	i
COc1ccc(-n2ncc(C(=O)N3CCN(c4ccc(F)cc4)CC3)c2C)cc1	4	-4	-4	-1	-12	-1	-13	i
C=CCn1c(SCC(=O)NCc2ccccc2)nnc1C1CCCCC1	-5	2	6	.	21	-2	-2	i
O=C(CS(=O)(=O)c1ccccc1)NCc1ccc(Cl)cc1	1	4	-15	-14	-13	-1	3	i
CN(CCOC(=O)c1ccco1)Cc1ccccc1	3	2	-12	.	-10	7	6	i
CN1CCN(C(=O)c2cnn3c(C(F)F)cc(C4CC4)nc23)CC1	-4	-1	6	.	.	-5	-4	i
O=S(=O)(NC(=NC1CCCCC1)c1ccccc1F)c1ccccc1	-3	0	-7	18	9	8	1	i
CC(C)NC(=O)[C@@H]1CSC2c3ccccc3C(=O)N21 (stereo partly drawn)	1	5	4	-10	-10	2	-4	i
COc1ccc(Cl)cc1C(=O)n1nc(C)cc1C	2	3	-5	.	-20	4	-10	i
COc1cc(CN2CCC(C(=O)NC(c3ccccc3)c3ccsc3)CC2)cc(OC)c1 (stereo not drawn)	1	-1	.	-21	-7	.	.	.
O=C(NCCOc1ccc(Cl)cc1)c1ccc2c(c1)OCCO2	7	1	5	.	-12	.	.	.
CC(C)Cc1nnc(NC(=O)CCC(=O)Nc2ccc(F)cc2)s1	.	.	3	-20	-9	-15	-8	i
COc1ccc(-c2noc(CN(C)S(=O)(=O)c3ccc(C)cc3)n2)cc1	-1	-3	-2	-30	-11	5	-6	i
O=C(NC1CCCC(C(F)(F)F)C1)c1ccc([N+](=O)[O-])o1 (stereo not drawn)	14	-2	69	.	-1	.	.	.
COc1ccccc1OCC(O)Cn1c(=N)n(CCN2CCCCC2)c2ccccc21 (stereo not drawn)	2	-3	-5	-46	-8	4	1	i
COC(=O)c1cccc(NC(=O)/C=C/c2ccc([N+](=O)[O-])cc2)c1	9	1	7	9	.	-3	-2	i

(list continues)
SMILES	MT1-MMP act inh	MT1-MMP act inh RFP	CSC inhib	Env fusion inh	UUG fidelity	eIF4H inh	PABP FP inh	Rce1 inhib	others
Cc1csc(NC(=O)CN2C(=O)c3ccccc3S2(=O)=O)n1	1	2	1	-97	-16	2	4	i
O=C(O)CCC(=O)Nc1ccc(N2CCCCC2)c(C(=O)O)c1	16	10	-11	.	-15	-3	-2	i
CN(C)C1=NCCN1CCc1ccccc1	0	2	-10	-35	-14	.	.	.
Cc1ccc(S(=O)(=O)NCCn2nc(C)nc2C)cc1	1	0	5	-9	-10	0	6	i
O=C(NCCCl)Nc1ccccc1OCCOc1ccccc1NC(=O)NCCCl	3	6	-2	-21	-14	-2	9	i
N#Cc1ccc(COC(=O)Cn2nnc(-c3ccccc3)n2)cc1	11	6	4	.	-17	-7	8	i
O=C(N/N=C\c1cn[nH]c1-c1ccccc1)c1cccs1	-1	1	-14	0	.	2	4	i
CC(c1nc2ccccc2c(=O)[nH]1)N1CCN(C)CC1 (stereo not drawn)	-10	7	-7	-20	-12	2	4	i
CC(=O)Nc1ccccc1O	12	5	-3	14	51	8	2	i
O=S(=O)(c1ccc(Cl)s1)N1CCCCC1	0	2	-2	16	-2	-7	-1	i
COc1ccc(CC(NC(C)=O)C(=O)NC2CCN(C(=O)Nc3ccc(C#N)cc3)CC2)cc1OC (stereo not drawn)	1	2	1	.	6	-1	-1	i
COc1ccc(OC)c(NC(=O)Nc2ccc(Cl)cc2)c1	3	-2	0	.	-8	-9	-2	i
Cc1cc(/C=N/NC(=O)c2ccc(CN3CCOCC3)cc2)c(C)n1-c1ccccc1	8	-6	-8	-9	8	-4	-11	i
Cc1ccccc1NC(=O)c1cc(S(=O)(=O)N2CCOCC2)cs1	-1	0	-14	.	-20	-6	13	i
CC(=O)c1cccc(NC(=O)N2CCc3ccccc3C2)c1	0	1	5	-52	-26	-4	-2	i

5 compounds out of the list, ordered by SMILES length, ascending.
SMILES	MT1-MMP act inh	MT1-MMP act inh RFP	CSC inhib	Env fusion inh	UUG fidelity	eIF4H inh	PABP FP inh	Rce1 inhib	others
CN(C)C1=NCCN1CCc1ccccc1	0	2	-10	-35	-14	.	.	.
Cc1ccc(S(=O)(=O)NCCn2nc(C)nc2C)cc1	1	0	5	-9	-10	0	6	i
CC(c1nc2ccccc2c(=O)[nH]1)N1CCN(C)CC1 (stereo not drawn)	-10	7	-7	-20	-12	2	4	i
O=C(N/N=C\c1cn[nH]c1-c1ccccc1)c1cccs1	-1	1	-14	0	.	2	4	i
Cc1ccccc1NC(=O)c1cc(S(=O)(=O)N2CCOCC2)cs1	-1	0	-14	.	-20	-6	13	i

More compounds.
SMILES	MT1-MMP act inh	MT1-MMP act inh RFP	CSC inhib	Env fusion inh	UUG fidelity	eIF4H inh	PABP FP inh	Rce1 inhib	others
Cc1ccc(CN(C(=O)N2CCN(C)CC2)S(=O)(=O)c2ccc(C)cc2)cc1	-3	1	-5	-2	-21	.	.	i
O=S(=O)(c1ccc(Cl)cc1)N1CCN(C(=S)Nc2ccc(F)c(Cl)c2)CC1	11	-5	27	24	-21	2	6	i
Cc1ccc(CSc2nnc(CNc3ccc(F)cc3)o2)cc1	1	-3	16	-1	.	-4	-1	i
Cc1cc(NC(=O)/C=C/C(=O)N(CC(=O)NC2CCCC2)c2cccc3ccccc23)no1	0	4	-1	-2	-14	-8	4	i
CCCCC(CC)C(=O)Nc1ccccc1C#N (stereo not drawn)	4	-2	-7	-18	-2	-2	-10	i

Screening data: PubChem BioAssay, several laboratories
